HCMV UL50-53 inh: cytomegalovirus nuclear egress complex inhibition | HTRF UL50-UL53 interaction, normalized percent inhibition | inhibition, % (no concentration beside the values) | 190,000 tested, 0.15% active | AID 1918969;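 active = both replicates at 50% or more, plus weaker picks with an unusually low signal ratio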;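 note: stock transfer was 100 nL into about 20 µL; 0% = negative control wells and 100% = wells with untagged competitor protein; inactives centre near -12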
GIV-Gai inh: inhibitors of GIV GBA-motif binding to rat Galpha-i3; Galpha-i3/FITC-GIV peptide fluorescence polarization, 90 min; hits give low values; scaled: aluminum fluoride 0%, vehicle 100%; P08753; AID 1224905; 210,000 tested, 0.42% active; percent of control (FP), % (concentration not given with the values);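 active = replicate mean at 85% of control or lower, very high polarization wells dropped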;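 note: wells of about 15 µL received 100 nL stock; the first replicate is given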
Target sequence (P08753 whole entry, looked up): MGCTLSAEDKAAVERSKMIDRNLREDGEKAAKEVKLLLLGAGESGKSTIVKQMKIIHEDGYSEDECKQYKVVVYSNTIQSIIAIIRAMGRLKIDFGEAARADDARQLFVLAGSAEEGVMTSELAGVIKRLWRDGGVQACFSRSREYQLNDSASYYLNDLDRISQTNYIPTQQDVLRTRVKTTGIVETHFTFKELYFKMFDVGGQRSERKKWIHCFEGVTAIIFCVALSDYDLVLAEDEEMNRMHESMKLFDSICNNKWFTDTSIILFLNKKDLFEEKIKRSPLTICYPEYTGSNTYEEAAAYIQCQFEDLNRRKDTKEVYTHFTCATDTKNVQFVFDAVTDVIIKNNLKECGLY
Sa growth inh: blocks Staphylococcus aureus growth; 170,000 tested, 0.53% active; relative growth, % (test concentration not listed); S. aureus RN4220 growth, OD600, 20 h, 42 °C; hits give low values;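 active = growth at 42 °C up to 50% and 20 or more points under that at 30 °C, or under 10% at both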;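 note: 300 nL library stock went into each well; scaled to the means of positive and negative controls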
Sa growth inh second temp: also measured in Sa growth inh; calls as there; relative growth, %; measured here: growth at 30 °C;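 optical density after 20 h as mean of two plates; 100% = untreated growth and lower means inhibition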
* hit, by the source's call; / = no result given; & = joins results of further samples. An unsorted share of the library, and some 0.83% of all compounds hit somewhere here.

The opening 20 entries as a preview:
SMILES	HCMV UL50-53 inh	GIV-Gai inh	Sa growth inh	Sa growth inh second temp
CNCc1ccc(-c2ccc(F)c(Cl)c2)o1	6&-27	106&105	99	101
CCCC(=O)C1=C(N(C)c2ccccc2)CC(C)(C)CC1=O	-40	102	87	89
Cc1cc(C)cc(-n2ncc3c(=O)[nH]cnc32)c1	7	/	97	96
Cc1ccc2[nH]c(CNC(=O)C3CC3)cc2c1	-5	107	112	89
CCOc1ccc(CCNC(=O)c2ccc(Cn3c(=O)c4cccn4c4cccnc43)cc2)cc1	/	112	78	81
COc1ccc(CNC(=O)CN2CCSc3ccccc32)c(OC)c1	/	109	116	98
Cc1cccc(C)c1NC(=O)C1(N(C)C(=O)c2ccc3ccccc3n2)CCCC1	-7	101	97	90
COc1ccccc1NC(=O)CN(C)S(=O)(=O)c1ccc2c(c1)c(=O)n(C)c(=O)n2C	-25	100	100	90
Cc1ccc(OCC(=O)N(Cc2ccc(N(C)C)cc2)CC2CCCO2)cc1C (stereo not given)	-22	102	99	69
CCCc1cc(=O)oc2cc(OCC(=O)OCc3ccccc3)ccc12	/	105	86	88
O=C1CS/C(=C/C(=O)N2CCCC2)N1	-19	99	94	89
O=C1c2cccc3cccc(c23)N1CN1CCCCC1	-79	/	94	80
Cc1ccc2cc(-c3noc(C4CCCCC4)n3)c(=O)[nH]c2c1	6	108	95	94
COc1cc(/C=C2/N=C(c3ccccc3Br)OC2=O)cc(OC)c1OC	-18	108	/	/
COc1ccc(NC(=O)C2=C(C)Nc3ncnn3C2c2ccccn2)cc1 (stereo not given)	/	101	88	90
Cc1ccsc1C(=O)OCC(=O)NC(c1ccccc1)c1ccccc1	-7	/	112	93
CCCN1C(=O)c2ccc(-c3nc4ccccc4c(=O)o3)cc2C1=O	-9	98	94	91
CCOC(=O)c1cnc2nc(C(F)(F)F)nn2c1N	-5	110	122	100
Cc1cc(C)cc(Nc2c(C(=O)N3CCOCC3)cnc3ccccc23)c1	-9	107	/	/
c1ccc(OCCSc2nnc(-c3c[nH]c4ccccc34)o2)cc1	-27	/	110	87

Results, from the start:
SMILES	HCMV UL50-53 inh	GIV-Gai inh	Sa growth inh	Sa growth inh second temp
CNCc1ccc(-c2ccc(F)c(Cl)c2)o1	6&-27	106&105	99	101
CCCC(=O)C1=C(N(C)c2ccccc2)CC(C)(C)CC1=O	-40	102	87	89
Cc1cc(C)cc(-n2ncc3c(=O)[nH]cnc32)c1	7	/	97	96
Cc1ccc2[nH]c(CNC(=O)C3CC3)cc2c1	-5	107	112	89
CCOc1ccc(CCNC(=O)c2ccc(Cn3c(=O)c4cccn4c4cccnc43)cc2)cc1	/	112	78	81
COc1ccc(CNC(=O)CN2CCSc3ccccc32)c(OC)c1	/	109	116	98
Cc1cccc(C)c1NC(=O)C1(N(C)C(=O)c2ccc3ccccc3n2)CCCC1	-7	101	97	90
COc1ccccc1NC(=O)CN(C)S(=O)(=O)c1ccc2c(c1)c(=O)n(C)c(=O)n2C	-25	100	100	90
Cc1ccc(OCC(=O)N(Cc2ccc(N(C)C)cc2)CC2CCCO2)cc1C (stereo not given)	-22	102	99	69
CCCc1cc(=O)oc2cc(OCC(=O)OCc3ccccc3)ccc12	/	105	86	88
O=C1CS/C(=C/C(=O)N2CCCC2)N1	-19	99	94	89
O=C1c2cccc3cccc(c23)N1CN1CCCCC1	-79	/	94	80
Cc1ccc2cc(-c3noc(C4CCCCC4)n3)c(=O)[nH]c2c1	6	108	95	94
COc1cc(/C=C2/N=C(c3ccccc3Br)OC2=O)cc(OC)c1OC	-18	108	/	/
COc1ccc(NC(=O)C2=C(C)Nc3ncnn3C2c2ccccn2)cc1 (stereo not given)	/	101	88	90

Single values from the list:
Value of Cc1ccc(OCC(=O)N(Cc2ccc(N(C)C)cc2)CC2CCCO2)cc1C (stereo not given) in Sa growth inh second temp: 69
Value of CCCC(=O)C1=C(N(C)c2ccccc2)CC(C)(C)CC1=O in Sa growth inh second temp: 89

Going on with the list.
SMILES	HCMV UL50-53 inh	GIV-Gai inh	Sa growth inh	Sa growth inh second temp
Cc1ccsc1C(=O)OCC(=O)NC(c1ccccc1)c1ccccc1	-7	/	112	93
CCCN1C(=O)c2ccc(-c3nc4ccccc4c(=O)o3)cc2C1=O	-9	98	94	91
CCOC(=O)c1cnc2nc(C(F)(F)F)nn2c1N	-5	110	122	100
Cc1cc(C)cc(Nc2c(C(=O)N3CCOCC3)cnc3ccccc23)c1	-9	107	/	/
c1ccc(OCCSc2nnc(-c3c[nH]c4ccccc34)o2)cc1	-27	/	110	87
CCOc1ccc(N=CC=Nc2ccc(OCC)cc2)cc1	/	104	107	91
Cc1nnc(SCC(=O)c2cc(C)n(CC3COc4ccccc4O3)c2C)n(N)c1=O (stereo not given)	-14	/	110	74
COCCn1nnnc1C(c1ccc(OC)c(OC)c1)N1CCc2ccccc21 (stereo not given)	-4	101	112	76
O=C(CC1N=C2c3ccccc3N=C(SCC(=O)Nc3ccc(F)cc3)N2C1=O)NCc1ccco1 (stereo not given)	/	105	71	80
COc1ccc(N2C(=O)NC(=O)/C(=C/c3ccc(OC(=O)c4cccs4)c(OC)c3)C2=O)cc1	1	112	/	/
Cc1c(C(=O)N2CCCC(C)C2)sc2ncnc(N3CCN(C)CC3)c12 (stereo not given)	-10	105	/	/
CC1CCCC(C)N1C(=O)CSc1nnc(C(F)(F)F)n1N (stereo not given)	9	/	99	94
Cc1ccc2nc(COCC(=O)O)[nH]c2c1	-21	98	88	89
CCn1c2ccccc2c2nnc(SCN3C(=O)c4ccccc4C3=O)nc21	-7	107	94	94
COc1ccc(-c2nnc(SCC(=O)N=Nc3c(O)[nH]c4ccccc34)n2-c2ccccc2)cc1OC	-14	100	94	86
CSc1ccnc2c1c(=O)n(C)c(=O)n2C	-6	98	85	89
Cc1ccc(NC(=O)c2sc3nc(-c4ccc(F)cc4)cn3c2C)cc1F	4	110	/	/
N#Cc1cc2c(cc1N)OCO2	-15	108	85	87
O=C(Nc1ccc2nc(SCC(=O)N3CCOCC3)sc2c1)c1ccccc1Cl	-22&-2	102&99	101	88
CC(=O)N1CCOc2cc(S(=O)(=O)N3CCC(Cc4ccccc4)CC3)c(C)cc21	-22	105	/	/
O=C(C1CC(=O)N(c2ccc3c(c2)OCCO3)C1)N1CCCSC1=Nc1ccccc1 (stereo not given)	-15	/	105	93
CCC1CCCCN1C(=O)COC(=O)c1cc(C)nc2ccccc12 (stereo not given)	-14	/	99	103
O=C1c2ccccc2C(=O)N1c1nc2n(n1)C(c1ccccc1)C=C(c1ccccc1)N2 (stereo not given)	-41	97	/	/
CCN1CCN(c2ncc3c(n2)CC(c2ccccc2O)CC3=O)CC1 (stereo not given)	/	98	98	87
Cc1ccc(-c2nnc(SCC(=O)Nc3ccccn3)n2-c2ccccc2)cc1	3	97	/	/
Cc1ccc2c(c1)N(CC(=O)NC1CCCC1)C(=O)CO2	1	101	106	85
CC1=CC(C)(C)N(C(=O)CSc2nnc3sc4ccccc4n23)c2ccccc21	-6	/	89	90
O=C(Nc1ccc(Cl)cc1)c1cc2c(Cl)nc3ccccc3c2s1	-9	108	89	93
O=C(CCn1ccc2cc(S(=O)(=O)N3CCCCC3)ccc21)NCc1cccc(Cl)c1	-2	101	/	/
CCOC(=O)c1ccc(CN(Cc2ccc(Cl)cc2Cl)S(=O)(=O)c2ccc(F)c(C)c2)cc1	/	112	122	98
COc1cc(C)c(S(=O)(=O)n2ccnc2)cc1C	-24	104	/	/
CC(C)CC(=O)Nc1ccc(C(=O)OCc2cc(=O)n3nc(C4CCCCC4)sc3n2)cc1	/	102	104	91
Cc1ccc(S(=O)(=O)[C@H]2CS(=O)(=O)C[C@@H]2N2CCc3ccccc3C2)cc1	-18	100	/	/
COc1c(C#N)sc2ccccc12	-20	100	/	/
CCCn1c(=O)c2ccc(C(=O)NC(C)C)cc2n2c(=O)n(CC(=O)c3ccc(OCC)cc3)nc12	-22	101	/	/
O=c1c2ccccc2[nH]c(=S)n1Cc1ccccc1	-4	/	103	92
CCCCCN=C1NN=C(c2ccccc2)C(C(=O)Nc2cccnc2)S1 (stereo not given)	-35	/	111	66
COc1ccc(OCC(=O)Nc2c(Cl)cccc2Cl)cc1	-33	/	84	87
O=C(Cn1nc(N2CCN(c3ccc(F)cc3)CC2)ccc1=O)NC1CCCC1	-26	115	/	/
CCn1c(SCC(=O)NCc2ccc(Cl)cc2)nnc1-c1ccccc1OC	-30	/	100	80
COCCCn1c(C)cc(C(=O)CSc2ncnc3ccccc23)c1C	14	/	136	92
Cc1cc(OCC(=O)Nc2ccccc2N2CCN(C)CC2)cc(C)c1Cl	-6	103	109	107
COc1cc(C2NC(=O)NC(C)=C2C(=O)OCCOc2ccccc2)cc(Br)c1O (stereo not given)	8	106	/	/
CCC(=O)N(c1n[nH]c(=S)s1)C1CC1	-4	/	99	92
O=C(C[n+]1cccc(C(=O)Nc2ccccc2)c1)c1ccc(N2C(=O)c3ccccc3C2=O)cc1	/	98	66	49
Cc1[nH]c(=S)[nH]c(=O)c1CCO	-31	102	87	88
O=S(=O)(Nc1ccc(N2CCCS2(=O)=O)cc1)c1ccccc1Cl	-22	94	/	/
CSc1ccc(-c2ccc3c(c2)OCCO3)nn1	3	99	108	82
CCOc1ccc(N(CC)C(=O)c2cc3c(=O)oc4ccccc4c3s2)cc1	-9	105	91	88
C=C1SC(Nc2ccc(F)c(Cl)c2)=NC1(CC)CC	/	99	96	102
CCOCCCn1c(=N)c(S(=O)(=O)c2ccc(Cl)cc2)cc2c(=O)n3cccc(C)c3nc21	-34	109	108	92
COc1ccc(OC)c(-n2nnc3c(sc4nc(C)c(Br)c(C)c43)c2=O)c1	-16	102	108	91
O=C(Cn1c(=O)n(CCCS(=O)(=O)C2CCCCC2)c(=O)c2ccccc21)Nc1ccccc1C(F)(F)F	8	105	98	98
O=C1CC(Cc2ccc(Cl)cc2)C(=O)N1Cc1ccccc1 (stereo not given)	-13	98	101	87
c1cncc(-c2nn3cnnc3s2)c1	-18	102	90	83
NS(=O)(=O)c1ccc(CNC(=O)c2ccccc2Oc2ccccc2)cc1	-15	/	103	75
COC(=O)/C(=C(/O)CSc1nnc(-c2ccco2)n1Cc1ccccc1)c1nc2ccccc2[nH]1	-36	/	100	79
Cc1occc1-c1nnc2sc(-c3c[nH]c4ccccc34)nn12	2	124	/	/
COc1ccc(Cl)cc1-c1noc(-c2ccncc2)n1	2	103	/	/
COc1ccc(-n2c(SC)nc3sc4c(c3c2=O)CCN(C(C)=O)C4)cc1	6	100	94	91
Continued.
SMILES	HCMV UL50-53 inh	GIV-Gai inh	Sa growth inh	Sa growth inh second temp
CC(C)Cn1c(N)c(C(c2cccnc2)N2CCN(c3ccccc3)CC2)c(=O)[nH]c1=O (stereo not given)	-24	/	80	87
CCC1Oc2ccc(Cl)cc2N(CC(=O)NCCc2ccc(Cl)cc2)C1=O (stereo not given)	/	102	123	97
Cc1cc(F)ccc1NC(=O)CS(=O)(=O)c1cccc2nsnc12	/	106	93	83
OC(COc1ccc(Cl)cc1)C(O)C(O)c1cnn(-c2ccccc2)n1 (stereo not given)	-9	/	97	95
O=C(c1cccs1)N1N=C(c2ccccc2)CC1c1ccccc1[N+](=O)[O-] (stereo not given)	6	108	/	/
Cc1ccc(NC(=O)CCCSc2nc(-c3ccco3)cc(C(F)(F)F)n2)cc1	-10	105	109	89
O=c1nc(Nc2nc(=O)c3ccccc3s2)[nH]c(=O)[nH]1	1	109	97	114
Brc1ccc(-c2csc(-c3nc(-c4ccc(Br)s4)cs3)n2)cc1	-3	102	91	92
Cc1ccccc1Nc1c(-c2ccc(Cl)cc2)nc2cnccn12	-6	109	/	/
COc1ccc(C2Nc3ccccc3-n3c(-c4ccccc4)c4c(=O)n(C)c(=O)n(C)c4c32)c(OC)c1 (stereo not given)	-21	101	/	/
Cc1cc(C(=O)Cn2cnnc2C#N)c(C)n1-c1ccc(Br)cc1	7	/	87	98
